# Screens as filed in PubChem.
# Anaer choline gr: inhibitors of anaerobic choline-dependent gram-negative bacterial growth | AID 1963822 | hit rate 0.2% among 55,000 | calls only | Gram-negative bacterium anaerobic choline minimal medium, absorbance growth; stronger effect = lower value; many inactives read as strong as hits in the columns shown;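 active = growth z-score on choline under -2 at 7 or 20 h with little or no fall on glycerol, limits in tiers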;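 also: stock transfer was 300 nL into about 50 µL; the organism is E. coli; final concentration not given here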
# Anaer choline gr early: also measured in Anaer choline gr; calls as there; z-score; measured here: choline growth z-score, timepoint 1;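 score of optical density at 7 h as mean of two plates; lower means less growth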
# * hit, by the source's call; i = inactive; + = active, no number; & = joins results of further samples; ! = repeats disagree.
Anaer choline gr	Anaer choline gr early	canonical_smiles
i	1.1	O=C(Cn1nc2n(Cc3ccc(F)cc3)c(=O)c3ccccc3n2c1=O)c1ccccc1
i	-0.65	Cc1cc2nc(CSc3nnc(NC(=O)Nc4ccc(C)c(Cl)c4)s3)cc(=O)n2o1
i	0.51	CCNC(=O)CN1C(=O)CC(C)Sc2ccc(S(=O)(=O)N3CCC(C)CC3)cc21 (stereo unspecified)
i	0.41	Cc1cc(Cl)ccc1NS(=O)(=O)c1cn(C)c(C)n1
i	0.55	COc1ccc(-c2cc3ncc(C(=O)c4cc(Br)ccc4O)cn3n2)cc1
i	0.21	COc1ccc(N(CC(=O)N2CCN(c3ccccc3OC)CC2)S(C)(=O)=O)cc1OC
i	1.2	O=C(Nc1ccc(SCc2nnc(-c3ccccc3)o2)cc1)Nc1ccccc1Cl
i	-0.69	CCOC(=O)c1c(C)[nH]c(C)c1S(=O)(=O)N(C)CC(=O)N1CCn2c1nc1ccccc12
i	0.42	Cc1nc2cccnc2n1-c1cc(C(=O)NC2CCN(Cc3ccccc3)CC2)ccc1Cl
i	-1.4	CC1CC(=O)Nc2cc(S(=O)(=O)CCC(=O)N3c4ccccc4CC3C)ccc2S1 (stereo unspecified)
i	0.09	Brc1ccc(Oc2nc3ccccc3nc2N2CCOCC2)cc1
i	-0.53	Cc1ccc2oc(SCc3noc(CCC(=O)Nc4nnc(C)s4)n3)nc2c1
i	-0.65	COc1ccc(OC)c(C2C(C(=O)Nc3ccccc3)=C(C)Nc3c(C(=O)Nc4ccccc4)cnn32)c1 (stereo unspecified)
i	-0.09	O=C(c1cn(-c2cc(N3CCSCC3)ncn2)cn1)N1CCN(c2ncccn2)CC1
i	-0.25	COc1ccc(OCC(=O)NCC2(N(C)C)CCCCC2)cc1
i	-0.01	CCCCCn1c(=O)c2sccc2n2c(CCC(=O)NC3CC3)nnc12
i	-0.18	CCN(CC)C(=O)CN1C(=O)c2ccccc2Sc2ccc(C(=O)OCC3CCCO3)cc21 (stereo unspecified)
i	0.89	COc1ccc(CN2C(=O)CSC2c2ccc3cccc(O)c3n2)cc1 (stereo unspecified)
i	-2.3	O=C(NCCN1CCOCC1)C1=C2CCCN2c2ccc(F)cc2S1(=O)=O
i	-1.4&0.02&0.48&0.48	Cn1c(=O)c2[nH]cnc2n(C)c1=O

# Another view of part of the listing above.
smiles,Anaer choline gr,Anaer choline gr early
CC1CC(=O)Nc2cc(S(=O)(=O)CCC(=O)N3c4ccccc4CC3C)ccc2S1 (stereo unspecified),i,-1.4
Cc1cc(Cl)ccc1NS(=O)(=O)c1cn(C)c(C)n1,i,0.41
CCCCCn1c(=O)c2sccc2n2c(CCC(=O)NC3CC3)nnc12,i,-0.01
COc1ccc(CN2C(=O)CSC2c2ccc3cccc(O)c3n2)cc1 (stereo unspecified),i,0.89
CCOC(=O)c1c(C)[nH]c(C)c1S(=O)(=O)N(C)CC(=O)N1CCn2c1nc1ccccc12,i,-0.69
O=C(c1cn(-c2cc(N3CCSCC3)ncn2)cn1)N1CCN(c2ncccn2)CC1,i,-0.09

# Full records from above.
# Cc1ccc2oc(SCc3noc(CCC(=O)Nc4nnc(C)s4)n3)nc2c1 across the screens: Anaer choline gr = i; Anaer choline gr early = -0.53
# O=C(Cn1nc2n(Cc3ccc(F)cc3)c(=O)c3ccccc3n2c1=O)c1ccccc1 across the screens: Anaer choline gr = i; Anaer choline gr early = 1.1

# Continuation.
Anaer choline gr	Anaer choline gr early	canonical_smiles
i	0.84	O=S(=O)(c1ccccc1)N1CCc2nc(N3CCCCC3)ncc2C1
i	-0.52	c1ccc(C2NCCN=C2NC2CCCCC2)cc1 (stereo unspecified)
i	-0.67	CCCCCC(=O)N1c2ccccc2NC2=C(C(=O)CC(C)(C)C2)C1c1cccs1 (stereo unspecified)
i	0.19	CCc1ccc(NC(=NCc2ccncc2)NC(=O)c2ccc(NC(C)=O)cc2)cc1
i	0	O=c1ccn(-c2ccc(Cl)cc2)nc1-c1nc(-c2ccc3c(c2)OCO3)no1
i	-1.4	COC(=O)c1cc(=O)c2cc(F)ccc2[nH]1
i	1.7	Cc1c(-c2nc(-c3ccccc3)no2)nnn1-c1cccc(Cl)c1
i	-1.9	CCOC(=O)Cn1c(=O)c2c(nc3n2CCS3)n(C)c1=O
i	-1.2	COc1cccc(-c2csc(-c3nnn(-c4ccccc4)c3N)n2)c1
i	-0.42	CCCCOc1ccc(C2CC(=O)Nc3c2c(C)nn3-c2ccc3nnc(C)n3n2)cc1OC (stereo unspecified)
i	0.9	Cc1ccc(C)c(S(=O)(=O)N2CCc3cc4ccccc4nc32)c1
i	0.62	COc1ccc(C(=O)N2CCC(c3nc(-c4ccc(NC(C)=O)cc4)no3)CC2)c(OC)c1
i	-0.61	CC(C)CN(Cc1ccccc1)Cc1cc(=O)n2nc(C(C)C)sc2n1
i	0.25	CCCCN(CC)C(=O)c1ccc(N2CCNCC2)c(NS(=O)(=O)c2ccc(F)cc2)c1
i	-1.2	O=C(CSc1ncnc2ccccc12)Nc1nc2ccccc2s1
i	-1.5	C=Cc1ccc(CN(c2nc3nc(C)c(Cl)c(C)n3n2)S(=O)(=O)c2ccc(C)cc2)cc1
i	1.4	Cc1ccc(NS(=O)(=O)c2cc(-c3cc(C(F)(F)F)on3)sc2C)cc1
i	-0.04	COC(=O)CSc1nc2nc[nH]c2c(=O)[nH]1
i	1.2	CCOC(=O)c1ccc(NC(=O)c2ccc(=O)n(Cc3ccc(F)cc3)c2)cc1
i	0.15	CC(=O)NCCc1c(Cc2ccccc2)[nH]c2ccccc12
i	0.37	CN(C)C(CNC(=O)c1cc(-c2ccc3c(c2)OCCO3)on1)c1ccc(F)cc1 (stereo unspecified)
i	0.31	Cc1ccccc1N1C(=O)C(Oc2ccc(Cl)cc2)C1CNC1CCCC1 (stereo unspecified)
i	0.77	COc1ccccc1C(NC(=O)C(C)C)c1ccc2cccnc2c1O (stereo unspecified)
i	2.2	Cc1ccccc1C1CC(=O)c2c(C)nc(N)nc2C1 (stereo unspecified)
i	1.2	O=C(COCc1cc(-c2ccc(F)cc2)on1)Nc1cc(Br)ccc1O
i	1.4	Cc1nc(-c2cc(S(=O)(=O)N(Cc3ccccc3)C(C)C)c(C)s2)sc1C
i	-1.6	Nc1ccc2nc(COc3ccc(Cl)cc3)[nH]c2c1
i	-0.94	O=C(CSc1nnc2ccc(-c3ccncc3)nn12)N1CCCC1
i	0.25	COc1ccc(NC(=O)c2nnc(COCC(=O)NCCc3c[nH]c4ccc(C)cc34)s2)cc1
i	-0.52	CCOc1ccccc1NC(=O)N1CCCC(C)(C(=O)NCc2ccccc2C)C1 (stereo unspecified)
i	0.43	COc1cc(NS(=O)(=O)c2cc(-c3nc(C)cs3)n(CC(=O)N3CCCC3)c2)cc(OC)c1
i	0.61	O=C(CCc1nc2sc3c(c2c(=O)[nH]1)CCCCC3)NC1CCCC1
i	0.53	Nc1nc2c(c(=O)[nH]1)C(c1ccc(OCc3cccc(Cl)c3)cc1)CC(=O)N2 (stereo unspecified)
i	0.62	COc1cccc(C(=O)Nc2cc(-c3ccccc3)nn2-c2ccccc2)c1
i	-0.68	O=C(c1noc2c1CCCCC2)N1CCCCC1
i	-1.8	CCOc1c(NC2CCCCC2)c(=O)c1=O
i	-2.5	CC(C)Cc1cc(-c2nnc3sc(-c4ccncc4)nn23)n[nH]1
i	-0.69	O=C(C1CCN(c2cncnc2N2CCCC2)CC1)N1CCCCC1
i	1.1	Cc1cc2c(cc1C)N=C(c1ccccc1)CC(SCC(=O)Nc1ccc3c(c1)OCCO3)=N2
i	0.97	COc1cc(Nc2ncc3c(n2)CCN(S(=O)(=O)c2cc(C)ccc2C)C3)cc(OC)c1
i	0.16	Cc1ccc(-c2ccc(=O)n(C(C)C(=O)N3CCc4ccccc43)n2)cc1S(=O)(=O)N1CCCC1 (stereo unspecified)
i	0.31	Cc1nc(N(C)C)cc(N2CCN(S(=O)(=O)c3cc(C(C)C)ccc3C)CC2)n1
i	0.11	COc1cc(OC)cc(-c2noc(-c3nn(-c4ccc(C)cc4)ccc3=O)n2)c1
i	-0.41	O=C(c1ccccc1)n1nc(-c2cccnc2)nc1NCc1ccc(F)cc1
i	1.4	CC1=NS(=O)(=O)c2cccnc2N1c1ccc(Cl)c(F)c1
i	0.48	Cc1nnc(-c2c(S(=O)(=O)NC3CCCCC3)c(C)n(C)c2C)o1
i	-0.38	CN(C)c1ccc(C(CNC(=O)CC(C)(C)C)N(C)C)cc1 (stereo unspecified)
i	0.87	O=C(NC1CCCCC1)c1ccc(-c2cc(NC3CCCCC3)ncn2)cc1
i	0.33	O=C(NCc1ccccn1)c1snc2c(=O)n(Cc3ccccc3)cnc12
i	-0.46	CS(=O)(=O)c1nc2ccc(NS(=O)(=O)c3ccc4c(c3)CCC4)cc2s1
i	-0.51	Cc1cc(C)cc(Cc2cnc(NC(=O)C3=Cc4ccccc4OC=C3)s2)c1
i	0.42	O=C(NCCC1=CCCCC1)c1cc(-c2cccnc2)nc2ccccc12
i	0.35	CC(C)CCNC(=O)CCCCn1c(=O)c2ccccc2n(CC(=O)NCc2ccccc2Cl)c1=O
i	-0.59	Cc1ccc(CNC(=O)C2(C)CCN(C(=O)c3ccc(Cl)cc3)CC2)cc1
i	0.83	O=C(Nc1ccc(F)cc1Cl)C1CCN(c2nc3ncccc3n3cccc23)CC1
i	-0.32	Cc1ccccc1-c1ncccc1C(=O)N1CCC(C(=O)NCc2cccc(Br)c2)CC1
i	-0.41	CCc1ccc(-c2cc3c(=O)[nH]nc(SCc4nc(-c5ccc6c(c5)OCO6)no4)n3n2)cc1
i	0.03	O=C(Nc1cccc2c1CCCC2)c1nc2ccccc2nc1N1CCCC1
i	1.4	COc1ccc(OC)c(S(=O)(=O)NCCc2csc(-c3ccc(Cl)cc3)n2)c1
i	0.73	CC(C)OCCCNCc1ccc2c(c1)n(C)c(=O)n2C

# Further structures
Anaer choline gr	Anaer choline gr early	canonical_smiles
i	0.26	Cc1ccc(COc2ccc(C3CC(=O)Nc4c3c(C)nn4-c3ccc4nncn4n3)cc2)cc1 (stereo unspecified)
i	-0.07	CC(C)NC(=O)CCn1c(=O)c2ccccc2n2c(=O)n(C)nc12
i	-0.27	O=C(Nc1ccc2c(c1)OCCO2)c1cccc(-n2cnnc2)n1
i	-0.14	C=CCN1CCN(c2nn3c(NC4CCCC4)c(-c4cccc(F)c4)nc3s2)CC1
i	0.45	Cc1nc(-c2csc(S(=O)(=O)N3CCCC(C(=O)N4CCOCC4)C3)c2)no1 (stereo unspecified)
i	-1.2	Cc1noc(C)c1C1CCCN1Cc1cn[nH]c1-c1ccc(F)cc1 (stereo unspecified)
i	0.47	CCN(Cc1ccccc1)c1ccc(C(=O)O)cc1NS(=O)(=O)c1cc(Cl)ccc1OC
i	-0.05	CCOC(=O)c1ccc(NC(=O)NCc2nnc(C(=O)Nc3ccccc3)s2)cc1
i	-0.73	Cn1cnc(S(=O)(=O)Nc2ccccc2)c1
i	0.91	CC(=O)Nc1nc(-c2ccc3c(c2)NC(=O)CO3)cs1
i	1.9	O=C(NCc1cc(=O)n2nc(-c3ccccc3)sc2n1)Nc1ccccc1Cl
i	0.08	CCN1CCN(c2cc(C(=O)O)c3cc(NS(=O)(=O)c4cc(C)c(C)cc4C)ccc3n2)CC1
i	0.31	O=S(=O)(NCCc1nc(-c2ccc(F)cc2)n[nH]1)c1ccc(Br)cc1
i	-1.1	COc1ccc(C2C3=C(CC(C)(C)CC3=O)Nc3c(C(=O)Nc4ccc(F)cc4)cnn32)cc1 (stereo unspecified)
i	-0.03	CCOc1ccc(N2C(=O)c3cc4occc4n3CC2(C)C(=O)NC2CCC(C)CC2)cc1 (stereo unspecified)
i	-1.2	CCOC(=O)c1cc(Nc2cc(OCC)ccc2OCC)c2cc(C)ccc2n1
i	-0.29	CC(C)c1ccc(-c2ccc(=O)n(CCc3nc(-c4ccc5c(c4)OCO5)no3)n2)cc1
i	0.48	O=C(CSc1nnc2n(Cc3ccco3)c(=O)c3sccc3n12)NC1CCCCC1
i	0.53&0.3&-0.1	CCC(C)(C)c1ccc(CC(C)CN2C[C@@H](C)O[C@@H](C)C2)cc1 (stereo partly specified)
i	-0.89	Fc1ccc(OCc2nnc3sc(COc4ccccc4)nn23)cc1

# Grouped by structure: the entries above containing a furan ring, fused or not (two)
Anaer choline gr	Anaer choline gr early	canonical_smiles
i	-0.03	CCOc1ccc(N2C(=O)c3cc4occc4n3CC2(C)C(=O)NC2CCC(C)CC2)cc1 (stereo unspecified)
i	0.48	O=C(CSc1nnc2n(Cc3ccco3)c(=O)c3sccc3n12)NC1CCCCC1

# Remaining list, next part
Anaer choline gr	Anaer choline gr early	canonical_smiles
i	0.31	CCOc1ccc(-c2noc(N3CCC(C(=O)N4CCCCC4)CC3)n2)cc1OC
i	1.4	O=S(=O)(c1cc(-c2cc(C(F)(F)F)on2)cs1)N1CCC(Cc2ccccc2)CC1
i	1.2	c1ccc(Nc2nc(N3CCCC3)nc3c2cnn3-c2ccccc2)cc1
i	1	CCN(CC)S(=O)(=O)c1ccc2nc(NCCC3=CCCCC3)cnc2c1
i	0.15	CCOC(=O)c1ccccc1NC(=O)CSc1nccn1-c1ccccc1C
i	0.1	O=C(CCCc1nnc2c(=O)n(-c3ccc(F)cc3)ccn12)NCCc1c[nH]c2ccccc12
i	0.79	CCC(CC)C(=O)NCC1(N2CCOCC2)CCCCC1
i	-1.6	CCC1=NS(=O)(=O)c2cccnc2N1c1ccc(F)c(F)c1
i	1.6	CS(=O)(=O)Nc1nc2ccc(NC(=O)c3cc(-c4ccncc4)nc4ccccc34)cc2s1
+!	-2.1*!	NC[C@@H]1O[C@H](C23CC4CC(CC(C4)C2)C3)Cc2c1ccc(O)c2O
i	1.6	CCOc1ccc(NC(=O)c2cn(C)c3c(c(C)nn3-c3ccc(F)cc3)c2=O)cc1
i	0.13	CCN(Cc1ccccc1)C(=O)C1CCN(S(=O)(=O)c2ccc3c(c2)sc(=O)n3C)CC1

# A portion of the library; rates above refer to the full screens.
